Compound activity as filed in PubChem.
StopGo reporter – lowers the luciferase signal of an FMDV 2A StopGo reporter. AID 1159524. human cells with a luciferase reporter of 2A StopGo recoding; control for the full effect not named in the record. Potency, µM (titrated, usually from 57.9 µM), inactives show top-dose signal change, negative = less light. 1.2% of 410,000 active; active = well fitted falling curve with a large enough effect; inconclusive = small, poorly fitted or top-dose-only effect; inactive = no such curve, though single readings can be large or run the other way; tested in HEK293T cells; note: % is set by controls: 0 for no effect and ±100 for the full control effect; nearly all actives have a fitted effect of over 45% in size; luciferase light after 4 h
Cruzain inh Det – inhibitors of Trypanosoma cruzi cruzain with detergent | AID 1478 | 0.43% of 200,000 active | P25779 | Potency, µM, without a hit: max response, negative = inhibition, most hits filed as inhibitors | purified cruzain, Z-FR-AMC fluorescence, 0.01% Triton;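 note: plate controls were neutral wells for no effect and buffer without enzyme for full effect; nearly all actives have a fitted effect of over 40% in size; top concentration of the series not given in the record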
Target sequence (P25779 123-467 limits assumed): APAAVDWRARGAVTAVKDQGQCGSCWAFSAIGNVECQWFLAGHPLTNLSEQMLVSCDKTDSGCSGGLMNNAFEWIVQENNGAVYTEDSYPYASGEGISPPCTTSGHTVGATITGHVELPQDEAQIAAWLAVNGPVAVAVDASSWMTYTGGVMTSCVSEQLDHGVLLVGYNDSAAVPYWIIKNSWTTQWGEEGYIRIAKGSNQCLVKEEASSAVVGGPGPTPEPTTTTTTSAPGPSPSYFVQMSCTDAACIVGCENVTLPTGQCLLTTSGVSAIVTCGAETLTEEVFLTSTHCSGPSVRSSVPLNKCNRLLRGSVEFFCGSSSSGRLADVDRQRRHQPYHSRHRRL
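Cruzain (1.5 nM) preincubated 15 min at RT with compound in 100 mM sodium acetate pH 5.5, 5 mM DTT, 0.01% Triton X-100. Reaction started with 2 uM Z-FR-AMC; AMC fluorescence (ex 360/em 450 nm) change over 60 s gave rate.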
SARS PLP yeast – blocks SARS-CoV papain-like protease in a yeast assay. S. cerevisiae expressing SARS-CoV PLpro, growth rescue; control for the full effect not named in the record. AID 485353. 0.19% of 330,000 active. Potency, µM (top dose mostly 32.9 µM), without a hit: at the top dose activity, positive = growth rescue; active means well fitted rising curve with a large enough effect; inconclusive means small, poorly fitted or top-dose-only effect; inactive means no such curve, though single readings can be large or run the other way; note: 0% is about no effect; nearly all actives have a fitted effect of over 55% in size; growth read by luminescence after 48 h
RE007 growth inh – less growth of the S. pombe RE007 Vpr strain; Potency, µM (series often up to 92.2 µM), inactives show at the highest dose activity change, negative = less growth; S. pombe RE007 Vpr strain, BacTiter-Glo ATP luminescence, 24 h; control for the full effect not named in the record; 0.21% of 360,000 active; active = well fitted falling curve with a large enough effect; inconclusive = small, poorly fitted or top-dose-only effect; inactive = no such curve, though single readings can be large or run the other way;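 note: % is set by controls: 0 for no effect and ±100 for the full control effect; nearly all actives have a fitted effect of over 50% in size; the assay follows cell death caused by Vpr and the record does not say whether a fall means rescue or toxicity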
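Fission yeast strain RE007, carrying one chromosomally integrated HIV-1 vpr copy, was seeded at OD 0.01 in PMG+AL medium with 23 nL pinned compound. After 24 h at 30 °C and 99% humidity, viability was read by BacTiter-Glo luminescence.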
LASV entry inh – blocks Lassa virus binding to or entry into cells. Lassa virus pseudotype entry inhibition, cell reporter; control for the full effect not named in the record. AID 540256. Potency, µM (doses to about 37.9 µM), for the others: at the top dose activity change, negative = inhibition, hits mostly inhibitors. 1.2% of 300,000 active; active means well fitted inhibition curve with a large enough effect; inconclusive means small, poorly fitted or top-dose-only effect, or effect the other way; inactive means flat fitted curve, though single readings scatter; tested in HEK293 cells; note: % is set by controls: 0 for no effect and ±100 for the full control effect; nearly all actives have a fitted effect of over 50% in size; luciferase read-out
MARV entry inh – blocks Marburg virus binding to or entry into cells; AID 540276; Potency, µM (top dose mostly 37.8 µM), without a hit: at the top dose activity change, negative = inhibition, usual class: inhibitors; 1.8% of 300,000 active; Marburg virus pseudotyped entry inhibition, cell reporter; control for the full effect not named in the record; about a third of the inactives were read at about 46 µM; active = well fitted inhibition curve with a large enough effect; inconclusive = small, poorly fitted or top-dose-only effect, or effect the other way; inactive = flat fitted curve, though single readings scatter; tested in HEK293 cells; about a fifth of its hits are not listed in these tables; note: % is set by controls: 0 for no effect and ±100 for the full control effect; luciferase read-out
Cruzain inh noDet – blocks cruzain activity in detergent-free assay. P25779. purified cruzain, Z-FR-AMC fluorescence, no detergent. Potency, µM, for inactives: max response, negative = inhibition, actives largely listed as inhibitors. 2.3% of 200,000 active;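 note: plate controls were enzyme without inhibitor for no effect and buffer without enzyme for full effect; nearly all actives have a fitted effect of over 40% in size; top concentration of the series not given in the record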
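Purified cruzain at 1.5 nM, pre-incubated 15 min with compound at room temperature in 100 mM sodium acetate pH 5.5, 5 mM DTT, 0.00005% Triton X-100. Reaction started with 2 uM Z-FR-AMC; AMC fluorescence increase over 60 s gives rate.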
NS1 function inh – influenza NS1 inhibition; S. cerevisiae slowed by influenza A NS1, growth recovery by OD600; Potency, µM (doses to about 46.1 µM), for the others: at the top dose activity, positive = more growth; 0.4% of 270,000 active; AID 2326; active means well fitted rising curve with a large enough effect; inconclusive means small, poorly fitted or top-dose-only effect; inactive means no such curve, though single readings can be large or run the other way; note: nearly all actives have a fitted effect of over 50% in size
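Read-out: OD600 growth recovery of NS1-expressing budding yeast. Cells grown overnight at 30C in -URA glucose medium, washed, resuspended and diluted 1:100 in 2% galactose assay medium, pH 6.0. Same strain lacking NS1 served as positive control.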
* hit, by the source's call; ? = inconclusive; nt = not tested or not shown; & = joins results of further samples; [ ] = dose if it differs, or a comment. Unless noted, calls come from the whole dose curve; as a rule, active = well fitted curve in the direction sought with a large enough effect; inconclusive = small, poorly fitted or top-dose-only effect, or another doubt; inactive = no such curve, though single readings can be large; an effect the other way counts as inactive or inconclusive. Potency is the fitted concentration of half-maximal effect.

1) CCOc1cc(C(=O)Nc2ccc3c(c2)n(C)c(=O)c(=O)n3C)cc(OCC)c1OCC
2) Oc1[nH]c2ccccc2c1N=Nc1c(F)c(F)c(F)c(F)c1F
3) C=CCc1cc(Cl)ccc1OC(=O)Nc1cccc(Cl)c1
4) CCN(CC(=O)Nc1ccccc1C(F)(F)F)C(=O)Cn1c(=O)cnc2ccccc21
5) CCCCn1c(=N)c(S(=O)(=O)c2ccc(C)cc2)cc2c(=O)n3cc(C)ccc3nc21
6) O=[N+]([O-])c1ccc(N2CC2)c([N+](=O)[O-])c1
Compound	1	2	3	4	5	6
RE007 growth inh	nt	50%	7%	18%	nt	?
Cruzain inh Det	-0.7%	nt	nt	nt	1.4%	nt
SARS PLP yeast	nt	nt	-2%	-2%	nt	nt
NS1 function inh	nt	nt	-1%	nt	nt	nt
MARV entry inh	-3%[46.1 µM]	?	nt	0%[46.1 µM]	nt	?
StopGo reporter	-20%	3%	9%	34%[activator]	-6%	-15%
Cruzain inh noDet	1%	nt	nt	nt	9%	nt
LASV entry inh	-5%[46.1 µM]	14%	nt	0%	5%[46.1 µM]	-1%[46.1 µM]

Brought forward from above: four compounds, then new ones.
3) C=CCc1cc(Cl)ccc1OC(=O)Nc1cccc(Cl)c1
4) CCN(CC(=O)Nc1ccccc1C(F)(F)F)C(=O)Cn1c(=O)cnc2ccccc21
5) CCCCn1c(=N)c(S(=O)(=O)c2ccc(C)cc2)cc2c(=O)n3cc(C)ccc3nc21
6) O=[N+]([O-])c1ccc(N2CC2)c([N+](=O)[O-])c1
7) CCCCC(C(=O)NC(C)(C)C)N(Cc1ccccc1Cl)C(=O)c1snc(C(N)=O)c1N (stereo not drawn)
8) Cc1ccc(C)c(N2CCN(CCCNC(=O)c3nnc(Cc4ccc(F)cc4Cl)o3)CC2)c1
9) CC(Oc1ccc2ccc(=O)oc2c1)C(=O)NCC1CCC(C(=O)O)CC1 (stereo not drawn)
10) Cc1c(Cl)cccc1N=C(N)N=C(N)N
11) N#Cc1ccc(C(=O)NCC(c2ccco2)N2CCCCC2)cc1 (stereo not drawn)
12) C/C(O)=C(/C=Nc1ccccc1)C(=O)Nc1ccccc1
Compound	3	4	5	6	7	8	9	10	11	12
RE007 growth inh	7%	18%	nt	?	-8%	nt	-2%	13%	-6%	10%
Cruzain inh Det	nt	nt	1.4%	nt	nt	-0.8%	nt	nt	0.2%	nt
SARS PLP yeast	-2%	-2%	nt	nt	-2%	nt	10%	-2%	3%	0%
NS1 function inh	-1%	nt	nt	nt	3%	nt	-2%	1%	1%	nt
MARV entry inh	nt	0%[46.1 µM]	nt	?	?	?	nt	4%[46.1 µM]	-3%	14%[46.1 µM]
StopGo reporter	9%	34%[activator]	-6%	-15%	-15%	?	-20%	-19%	-15%	-13%
Cruzain inh noDet	nt	nt	9%	nt	nt	-5%	nt	nt	-5%	nt
LASV entry inh	nt	0%	5%[46.1 µM]	-1%[46.1 µM]	?	?	nt	8%	2%	8%[46.1 µM]

13) CC(C)N(CC(O)COc1ccc(CC(N)=O)cc1)CC(O)COc1ccc(CC(N)=O)cc1 (stereo not drawn)
14) Cc1noc(C)c1COc1ccccc1C(=O)NCCc1ccc(S(N)(=O)=O)cc1
15) Cc1cc(C=O)c(C)n1-c1cc(C(=O)O)cc(C(=O)O)c1
16) Nc1c(C=C2C=CC(=O)C=C2)c(=O)nc2sc(CC(=O)N3CCOCC3)nn12
17) N#CCCN1CCN(CCC#N)c2ccccc21
18) O=C(CCS(=O)(=O)c1cc(Br)cc2c1N(C(=O)C1CC1)CC2)NCc1ccc(Cl)cc1
Compound	13	14	15	16	17	18
RE007 growth inh	12%	-21%	3%	-19%	0%	nt
Cruzain inh Det	nt	nt	nt	nt	nt	-4.2%
SARS PLP yeast	0%	2%	3%	-1%	nt	nt
NS1 function inh	3%	-5%	3%	8%	nt	nt
MARV entry inh	10%[46.1 µM]	-3%	11%[46.1 µM]	10%[46.1 µM]	6%[46.1 µM]	-5%[46.1 µM]
StopGo reporter	-16%	-19%	23%	-13%	6%	23%
Cruzain inh noDet	nt	nt	nt	nt	nt	-6%
LASV entry inh	0%[46.1 µM]	1%	1%[46.1 µM]	4%[46.1 µM]	-2%[46.1 µM]	-16%[46.1 µM]

19) O=C(COC(=O)Cc1ccc(Cl)cc1)Nc1c(F)cccc1F
20) O=C(NCCCN1CCCCC1)c1ccc2c(c1)NC(=O)C(N1CCCCC1)S2 (stereo not drawn)
21) COc1ccc(Sc2nnc(Cc3ccccc3)c3ccccc23)cc1
22) Cc1ccc(-n2c(SCC(=O)N(C)C)nnc2-c2ccco2)cc1
23) COc1ccc(N(CC(=O)NCc2ccc(F)cc2)C(=O)c2snc(C(N)=O)c2N)cc1
24) COCCn1c(C)cc(C(=O)CSc2nnc(C)s2)c1C
Compound	19	20	21	22	23	24
RE007 growth inh	16%	2%	15%	6%	-16%	-10%
Cruzain inh Det	nt	-2.8%	-0.6%	nt	nt	-0.4%
SARS PLP yeast	2%	5%	4%	1%	16µM*	nt
NS1 function inh	nt	1%	22%	?	1%	2%
MARV entry inh	18%[46.1 µM]	-13%	?	nt	-2%[46.1 µM]	?
StopGo reporter	-14%	4%	?	2%	-19%	7.9µM*
Cruzain inh noDet	nt	-3%	4%	nt	nt	-11%
LASV entry inh	6%[46.1 µM]	20%	-32%[14.3 µM]	nt	?	?

25) COC(=O)c1c(C(=O)OC)c(-c2ccc(OC)cc2)n2c1CCC2
26) COc1ccccc1NC(=O)c1oc2ccccc2c1NC(=O)Cc1ccccc1
27) CCOc1ccc(N(C(=O)c2snc(C(N)=O)c2N)C(C)C(=O)NC2CCCCC2)cc1 (stereo not drawn)
28) Cc1cc(C)cc(NC(=O)c2cccc(N3C(=O)C4C5C=CC(C5)C4C3=O)c2)c1 (stereo not drawn)
29) CC(=O)Nc1ccc(NC(=O)/C=C/c2cccc(C(F)(F)F)c2)cc1
30) O=S(=O)(NC1=NCCC1)c1cccc(NC(=S)NCCc2ccccc2)c1
Compound	25	26	27	28	29	30
RE007 growth inh	-1%	nt	-13%	21%	0%	-18%
Cruzain inh Det	nt	-0.9%	nt	nt	2.5%	-15%
SARS PLP yeast	3%	nt	-2%	1%	5%	19%
NS1 function inh	-2%	nt	5%	8%	18%	-2%
MARV entry inh	nt	3%[46.1 µM]	-28%[46.1 µM]	?	?	?
StopGo reporter	-18%	-23%	-6%	10%	-5%	77%[activator]
Cruzain inh noDet	nt	3%	nt	nt	5%	0%
LASV entry inh	nt	-2%[46.1 µM]	?	-6%[46.1 µM]	-3%	-10%

31) COc1nc(OC)nc(N2CCC(C(=O)NCc3ccc(F)cc3)CC2)n1
32) COc1ccc(CN(Cc2ccco2)c2cnc(S(C)(=O)=O)nc2C(=O)Nc2ccc(C)cc2C)cc1
33) COC1CCCN(Cc2c(C(=O)N3CCc4ccccc4C3)nc3ccc(Cl)cn23)C1 (stereo not drawn)
34) COc1ccc2[nH]cc(C(=O)CN3CCN(C/C=C/c4ccccc4)CC3)c2c1
35) CCN1C(=O)/C(=C/C=C2/Sc3ccccc3N2CCO)SC1=S
36) Cc1c(C(=O)O)sc2nc(/C=C/c3cccc(F)c3)[nH]c(=O)c12
Compound	31	32	33	34	35	36
RE007 growth inh	-4%	nt	-10%	nt	-1%	8%
Cruzain inh Det	2.2%	-4.0%	nt	-9.3%	nt	nt
SARS PLP yeast	2%	nt	0%	7%	-2%	3%
NS1 function inh	11%	nt	-4%	20%	nt	10%
MARV entry inh	17%	-29%[46.1 µM]	nt	nt	1%[46.1 µM]	nt
StopGo reporter	nt	-16%	-13%	nt	-19%	25%
Cruzain inh noDet	-11%	?	nt	0%	nt	nt
LASV entry inh	-3%	?	nt	nt	0%	nt

37) CC1CCC(=NNC(=O)c2ccccc2-n2cccc2)CC1 (stereo not drawn)
38) CCn1c(SCC(=O)NCc2ccco2)nnc1-c1ccc(N)cc1
39) CCc1ccc(NC(=O)CSc2nc3cc(C(=O)OC)ccc3c(=O)n2Cc2ccco2)cc1
40) CC(=O)c1ccc(NC(=O)C2CCC(CNS(=O)(=O)c3ccc(Br)s3)CC2)cc1 (stereo not drawn)
41) O=C(O)COn1c(-c2ccccc2)nc2ccc([N+](=O)[O-])cc21
42) CCC(C(=O)Nc1ccc2c(c1)OCCO2)n1c(=O)[nH]c2ccccc2c1=O (stereo not drawn)
Compound	37	38	39	40	41	42
RE007 growth inh	1%	13%	-10%	nt	-14%	6%
Cruzain inh Det	nt	4.2%	1.3%	-4.1%	nt	nt
SARS PLP yeast	2%	4%	-4%	nt	-1%	9%
NS1 function inh	nt	8%	4%	nt	-4%	10%
MARV entry inh	16%[46.1 µM]	-29%&-29%	0%&6%	13%[46.1 µM]	20%[46.1 µM]	15%[46.1 µM]
StopGo reporter	-4%	-16%	10%	-5%	27%	-2%
Cruzain inh noDet	nt	3%	5µM*	1%	nt	nt
LASV entry inh	7%	-1%	0%	?	13%[46.1 µM]	22%[46.1 µM]

43) Cc1cccc(NC(=S)N2CCN(S(=O)(=O)c3ccccc3)CC2)c1
44) Nc1ccccc1C(=O)N1CCc2ccccc21
45) Cc1onc(-c2ccccc2)c1C(=O)NNC(=S)NC(=O)c1ccc(Cl)cc1Cl
46) Cc1ccc(Cn2c(N/N=C/c3ccncc3)nc3c2c(=O)n(C)c(=O)n3C)cc1
47) Cc1cccc(/C=C(\C#N)c2nc3ccccc3c(=O)[nH]2)c1
48) O=C(COC(=O)c1ccccc1[N+](=O)[O-])c1ccc2c(c1)OCO2
Compound	43	44	45	46	47	48
RE007 growth inh	1%	1%	11%	9%	nt	?
Cruzain inh Det	nt	nt	-1.8%	nt	-1.3%	nt
SARS PLP yeast	?	2%	-21%	0%	nt	2%
NS1 function inh	9%	-10%	?	-7%	nt	nt
MARV entry inh	5%[46.1 µM]	nt	?	-25%	nt	?
StopGo reporter	1%	45%[activator]	-29%	-17%	-18%	?
Cruzain inh noDet	nt	nt	?	nt	-3%	nt
LASV entry inh	?	nt	-3%	?	-1%[46.1 µM]	3%
